StopGo reporter = FMDV 2A StopGo reporter, luciferase signal | human cells with a luciferase reporter of 2A StopGo recoding; control for the full effect not named in the record | hit rate 1.2% among 410,000 | Potency, µM (highest dose often 57.9 µM), without a hit: at the top dose signal change, negative = less light | AID 1159524; active = well fitted falling curve with a large enough effect; inconclusive = small, poorly fitted or top-dose-only effect; inactive = no such curve, though single readings can be large or run the other way; tested in HEK293T cells; note: % is set by controls: 0 for no effect and ±100 for the full control effect; nearly all actives have a fitted effect of over 45% in size; luciferase light after 4 h
Cruzain noTriton = cruzain (T. cruzi) inhibition without detergent. P25779. purified cruzain, Z-FR-AMC fluorescence, no detergent. Potency, µM, for the others: max response, negative = inhibition, usual class: inhibitors. hit rate 2.3% among 200,000; active = well fitted curve in the direction sought with a large enough effect; inconclusive = small, poorly fitted or top-dose-only effect, or another doubt; inactive = no such curve, though single readings can be large; an effect the other way counts as inactive or inconclusive;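 note: plate controls were enzyme without inhibitor for no effect and buffer without enzyme for full effect; nearly all actives have a fitted effect of over 40% in size; top concentration of the series not given in the record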
Target sequence (P25779 123-467 limits assumed): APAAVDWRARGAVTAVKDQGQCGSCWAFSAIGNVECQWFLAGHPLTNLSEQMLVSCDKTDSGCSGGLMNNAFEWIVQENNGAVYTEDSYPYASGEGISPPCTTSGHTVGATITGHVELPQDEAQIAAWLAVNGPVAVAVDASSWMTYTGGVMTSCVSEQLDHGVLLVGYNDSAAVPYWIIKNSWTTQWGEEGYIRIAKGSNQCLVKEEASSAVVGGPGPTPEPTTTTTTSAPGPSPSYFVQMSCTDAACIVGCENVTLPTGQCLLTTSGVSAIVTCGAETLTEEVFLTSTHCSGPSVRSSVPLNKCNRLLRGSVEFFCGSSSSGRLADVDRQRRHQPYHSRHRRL
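Detergent-free condition (0.00005% Triton X-100) in acetate buffer pH 5.5 with DTT. 1.5 nM enzyme and compound were pre-mixed 15 min, then 2 uM Z-FR-AMC substrate added; reaction progress from fluorescence change between first and third reads (60 s).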
NS1 inh = blocks influenza NS1 protein function; hit rate 0.4% among 270,000; AID 2326; S. cerevisiae slowed by influenza A NS1, growth recovery by OD600; Potency, µM (series often up to 46.1 µM), for the others: at the highest dose activity, positive = more growth; note: actives are rising curves; nearly all actives have a fitted effect of over 50% in size
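Read-out: OD600 growth recovery of NS1-expressing budding yeast. Cells grown overnight at 30C in -URA glucose medium, washed, resuspended and diluted 1:100 in 2% galactose assay medium, pH 6.0. Same strain lacking NS1 served as positive control.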
Cruzain inh Det = inhibitors of Trypanosoma cruzi cruzain with detergent. purified cruzain, Z-FR-AMC fluorescence, 0.01% Triton. AID 1478. hit rate 0.43% among 200,000. Potency, µM, for the others: max response, negative = inhibition, usual class: inhibitors; active = well fitted curve in the direction sought with a large enough effect; inconclusive = small, poorly fitted or top-dose-only effect, or another doubt; inactive = no such curve, though single readings can be large; an effect the other way counts as inactive or inconclusive;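 note: plate controls were neutral wells for no effect and buffer without enzyme for full effect; nearly all actives have a fitted effect of over 40% in size; top concentration of the series not given in the record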
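Purified cruzain (1.5 nM final) was preincubated with compounds for 15 min at room temperature in 100 mM sodium acetate pH 5.5, 5 mM DTT, 0.01% Triton X-100. Reaction started with 2 uM Z-FR-AMC; AMC fluorescence change over 60 s gave activity.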
Lassa entry inh = Lassa virus entry inhibition; Lassa virus pseudotype entry inhibition, cell reporter; control for the full effect not named in the record; Potency, µM (titrated, usually from 37.9 µM), for inactives: top-dose activity change, negative = inhibition, actives largely listed as inhibitors; hit rate 1.2% among 300,000; active means well fitted inhibition curve with a large enough effect; inconclusive means small, poorly fitted or top-dose-only effect, or effect the other way; inactive means flat fitted curve, though single readings scatter; tested in HEK293 cells; note: % is set by controls: 0 for no effect and ±100 for the full control effect; nearly all actives have a fitted effect of over 50% in size; luciferase read-out
Marburg entry inh = inhibitors of Marburg virus binding or cell entry | Marburg virus pseudotyped entry inhibition, cell reporter; control for the full effect not named in the record; about a third of the inactives were read at about 46 µM | AID 540276 | Potency, µM (doses to about 37.8 µM), for the others: at the top dose activity change, negative = inhibition, hits mostly inhibitors | hit rate 1.8% among 300,000; active = well fitted inhibition curve with a large enough effect; inconclusive = small, poorly fitted or top-dose-only effect, or effect the other way; inactive = flat fitted curve, though single readings scatter; tested in HEK293 cells; about a fifth of its hits are not listed in these tables; note: % is set by controls: 0 for no effect and ±100 for the full control effect; luciferase read-out
RE007 growth inh = less growth of the S. pombe RE007 Vpr strain. S. pombe RE007 Vpr strain, BacTiter-Glo ATP luminescence, 24 h; control for the full effect not named in the record. Potency, µM (doses to about 92.2 µM), for inactives: at the highest dose activity change, negative = less growth. hit rate 0.21% among 360,000; active = well fitted falling curve with a large enough effect; inconclusive = small, poorly fitted or top-dose-only effect; inactive = no such curve, though single readings can be large or run the other way;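 note: % is set by controls: 0 for no effect and ±100 for the full control effect; nearly all actives have a fitted effect of over 50% in size; the assay follows cell death caused by Vpr and the record does not say whether a fall means rescue or toxicity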
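Fission yeast RE007 carrying one integrated HIV-1 vpr copy, seeded at OD 0.01 in PMG+AL medium with 23 nL pinned compound. Grown 24 h at 30 degrees; viability read by BacTiter-Glo luminescence after 5 min.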
SARS PLP yeast = SARS-CoV PLP inhibition in yeast; AID 485353; hit rate 0.19% among 330,000; Potency, µM (highest dose often 32.9 µM), for inactives: at the top dose activity, positive = growth rescue; S. cerevisiae expressing SARS-CoV PLpro, growth rescue; control for the full effect not named in the record; note: 0% is about no effect; nearly all actives have a fitted effect of over 55% in size; growth read by luminescence after 48 h
* marks the source's active call; other numbers are inactive results; ? = inconclusive; / = not tested or not shown; & = joins results of further samples; [ ] = another dose, or the depositor's remark. Unless noted, calls come from the whole dose curve; as a rule, active means well fitted rising curve with a large enough effect; inconclusive means small, poorly fitted or top-dose-only effect; inactive means no such curve, though single readings can be large or run the other way. Potency is the fitted concentration of half-maximal effect. Rows are unselected; 4.7% or so of the library scored in one or more.

SMILES	StopGo reporter	Cruzain noTriton	NS1 inh	Cruzain inh Det	Lassa entry inh	Marburg entry inh	RE007 growth inh	SARS PLP yeast
O=C(c1ccc(OC2CCN(CCc3ccccc3)CC2)cc1)N1CCCC(CO)C1 (stereo not given)	-4%	/	6%	/	/	/	0%	0%
S=c1[nH]nc(COc2ccccc2)n1/N=C/C(Cl)=C/c1ccccc1	35µM*	-10%	?	-11%	18µM*	2%	-18%	1%
Cc1ccc(S(=O)(=O)c2nnn3c2nc(NC(C)C)c2sccc23)cc1	-15%	15%	/	0.9%	-18%[46.1 µM]	/	/	/
COc1ccc(NC(=O)CSc2nc3ccccc3nc2N2CCCC2)cc1	-9%	/	8%	/	/	/	3%	-3%
CCN(CC(=O)NCc1ccc(Cl)cc1)C(=O)COc1ccc(Cl)cc1Br	3%	/	/	/	-27%	?	5%	-24%
COc1ccc(CCNC(=O)Cn2c(=O)c3cccn3c3ccc(F)cc32)c(OC)c1	-5%	4%	/	0.3%	4%[46.1 µM]	/	/	/
Cc1ccccc1OC(C)C(=O)NCc1cccnc1 (stereo not given)	-4%	/	-1%	/	4%[46.1 µM]	-2%[46.1 µM]	11%	-1%
COc1ccc(CNC(=O)[C@H](Cc2c[nH]c3ccccc23)NC(C)=O)cc1OC	5%	/	5%	/	6%[46.1 µM]	?	1%	4%
COc1ccc(NC(=O)CS(=O)c2ccc(F)cc2)cc1 (stereo not given)	17%	/	9%	/	28%[46.1 µM]	2%[46.1 µM]	-1%	1%
COc1ccccc1CCNC(=O)Cn1c(=O)oc2ccccc21	5%	/	15%	/	-16%[46.1 µM]	-1%[46.1 µM]	9%	-3%
O=C(CCN1C(=O)C2C3CCC(C3)C2C1=O)Nc1ccc([N+](=O)[O-])cc1 (stereo not given)	1%	/	/	/	8%	3%[46.1 µM]	3%	1%
O=C(CCc1ccccc1)NNc1cc(N2CCCCC2)nc(N2CCCCC2)n1	5%	/	/	/	-11%	-22%	1%	1%
ClCCCc1cn(C[C@H]2CC[C@@H]([C@@H]3CC[C@H](Cn4cc(CCCCl)nn4)O3)O2)nn1	5%	/	-8%	/	/	/	-8%	4%
CCOc1ccc(CSC2=NCCN2)cc1[N+](=O)[O-]	-25%	2%	0%	0.9%	?	4µM*	-21%	15%
COc1ccccc1CNC(=O)CCn1c(=O)c2ccccc2n(CC(=O)Nc2cc(Cl)ccc2C)c1=O	-24%	-1%	/	-0.8%	-19%[46.1 µM]	?	/	/
Cc1cccc(N2CCN(CCCNC(=O)c3nnc(Cc4c(F)cccc4Cl)o3)CC2C)c1 (stereo not given)	?	-5%	/	-1.5%	-16%[46.1 µM]	?	/	/
Cc1ccccc1CSc1nc2n(n1)C(c1cccs1)C1=C(CCCC1=O)N2 (stereo not given)	?	1%	-33%	-7.2%	-13%	-65%	3%	3%
CCC1=Nc2cc(C(=O)NCCCOC(C)C)ccc2Sc2ccc(C)cc21	-22%	?	/	-7.3%	/	/	/	/
CCOCCCNC(=O)c1cn(C)c2ccc(S(=O)(=O)N3CCCCC3)cc2c1=O	-1%	/	-3%	/	/	/	8%	-2%
CCCN1CCN(CCCNC(=O)c2ccc3nc(N4CCC(C)CC4)sc3c2)CC1	?	/	-7%	/	/	/	-7%	-7%
N#C/C(=C/c1cn(-c2ccccc2)nc1-c1cccc(S(=O)(=O)N2CCOCC2)c1)C(=O)NCc1ccco1	0%	-16%	2%	5.7%	5%	-19%	-10%	11%
CCc1c(O)c(-c2ccccc2)c(=O)n(-c2ccccn2)c1-c1ccccc1	10%	/	-1%	/	0%	1%	6%	0%
O=C(CCCCCN1C(=O)c2ccccc2C1=O)Nc1ccc(F)cc1	-19%	-3%	4%	-5.9%	-24%	-5%	4%	-8%
NC(=O)C1=C[C@@H](c2csc3ccccc23)C[C@@H](OCc2ccc(CO)cc2)O1	-1%	/	-11%	/	/	/	-4%	-3%
CCC(=O)Nc1cccc(-c2nc3ccccc3o2)c1	10%	1%	-34%	-4.9%	5%	4%[46.1 µM]	-28%	-19%
COc1cc(C2/C(=C(/O)c3ccc(F)cc3)C(=O)C(=O)N2CCCC(=O)O)ccc1O (stereo not given)	9%	-15%	4%	-6.8%	4%	14%&14%	3%	2%
O=C(c1ccc([N+](=O)[O-])cc1)N(c1ccccn1)c1ccccn1	5%	/	1%	/	23%	9%[46.1 µM]	-11%	-1%
COc1ccc2c(c1)CC(N1CCN(C)CC1)c1cc(OC)ccc1S2 (stereo not given)	?	/	/	/	?	4µM*	11%	/
CCS(=O)(=O)C1=NN2C(=N)/C(=C\c3ccc(SCc4ccco4)o3)C(=O)N=C2S1	23%	/	?	/	0%	-23%	-6%	-1%
CN(Cc1ccccc1F)C(=O)CNC(=O)Cc1cccc2ccccc12	-11%	/	-14%	/	-7%	-1%	-16%	-4%
Cc1ccc(S(=O)(=O)Cn2nnnc2C(C)N2CCN(C(=O)c3ccco3)CC2)cc1 (stereo not given)	/	24%	-4%	1.1%	16%	15%	5%	4%
O=C(C1CC(=O)N(c2ccccc2)C1)N1CCC(c2nc3ccccc3[nH]2)CC1 (stereo not given)	-10%	/	/	/	-1%	4%	2%	-14%
CCCOP(=O)(c1ccc(N(C)C)cc1)C(O)c1ccc(N(C)C)cc1 (stereo not given)	-2%	/	-3%	/	?	?	0%	-1%
Cc1[nH]c(=O)[nH]c(=O)c1CSCC(=O)OCC(=O)Nc1ccccn1	-3%	/	-61%	/	9%[46.1 µM]	2%[46.1 µM]	3%	-2%
CCCCCOC(=O)Nc1nnc(CCCCC)s1	-10%	0%	-48%	0.3%	/	3%	-17%	-4%
O=C(Cc1ccccc1)NC(=S)Nc1ccc2oc(-c3ccccc3F)nc2c1	32%[activator]	-26%	-7%	-0.9%	?	-8%[46.1 µM]	-2%	-8%
COCc1nnc(NC(=O)CC(C)C)s1	-10%	-5%	9%	-1.3%	6%	6%[46.1 µM]	4%	-2%
COc1ccc2[nH]c(C(=O)N3CCN(Cc4ccccc4)CC3)cc2c1OC	-18%	/	0%	/	?	-22%[46.1 µM]	7%	1%
NC(=O)C(CC(=O)O)NC(=O)[C@@H]1CCOc2c(I)cc([N+](=O)[O-])cc2C(=O)N[C@@H](CO)C(=O)N[C@@H](Cc2ccc(O)cc2)C(=O)N1 (stereo not given in full)	-12%	?	15%	-3.5%	6%	-6%	0%	7%
O=C(NCc1ccccc1)C(c1ccco1)N(C(=O)c1cnccn1)c1ccc(F)cc1 (stereo not given)	-19%	-5%	8%	1.1%	6%	?	17%	3%
COc1ccc(C(=O)Nc2ccc3c(c2)CCCN3S(=O)(=O)c2ccc(C)cc2)c(OC)c1	20%	?	/	-1.1%	-4%[46.1 µM]	/	/	/
CC(=O)Oc1c(C)cc(O)c2ccccc12	/	-9%	-52%	-6.6%	/	-5%	/	-5%
CCOC(=O)c1ccc(NC(=O)C2=C(C)Nc3nc(CCCO)nn3C2c2ccc(OC)cc2)cc1 (stereo not given)	-14%&7%	?	2%	2.4%&-8.2%	1%	1%&1%&1%&1%	-4%	-2%
Cc1nc(C)c(CC(=O)N/N=C/c2ccc(O)cc2)c(=O)[nH]1	-13%	5%	-14%	-4.2%	15%	6%	-10%	-10%
CC(C)CN1CCC(=O)N([C@H](COc2ccccc2)c2ccccc2)CC1	0%	/	-10%	/	/	/	-4%	0%
COc1ccc(C2=NOC(C(=O)Nc3cc(C)on3)C2)cc1 (stereo not given)	-20%	4%	5%	1.5%	/	/	3%	5%
COC(=O)C(NC(=O)c1ccco1)(Nc1ccc(Br)cn1)C(F)(F)F (stereo not given)	-12%	-1%	13%	-3.6%	-13%	-30%	-5%	-2%
COc1cccc2[nH]c3c(N4CC(C)CC(C)C4)ncnc3c12 (stereo not given)	/	-4%	-1%	-4.1%	/	0%	/	-3%
Cc1ccc(Cn2nnc3c(=O)[nH]c(C4CCN(C(=O)Cc5cccs5)CC4)nc32)cc1	-27%	?	2%	2.7%	?	-3%&1%	-17%	-3%
Cc1cc(C)cc(OCC(O)CN2CCN(Cc3ccc4c(c3)OCO4)CC2)c1 (stereo not given)	-23%	/	/	/	?	?	-20%	-2%
COc1ccc(CCNC(=O)c2c(C)oc3nc(C)nc(N4CCOCC4)c23)cc1OC	7%	-6%	/	-1.8%	22%[46.1 µM]	/	/	/
COc1ccc(S(=O)(=O)NC2CCc3ccccc32)cc1OC (stereo not given)	29%	/	-11%	/	/	0%	-11%	0%
O=C(CN1C(=O)CCc2cc(S(=O)(=O)N3CCOCC3)ccc21)NCc1ccccc1Cl	-1%	-6%	/	-1.0%	5%[46.1 µM]	/	/	/
Cn1c(=O)oc2cc(S(=O)(=O)NCCC(=O)N3CCN(c4ccccc4)CC3)ccc21	-23%	/	-2%	/	/	/	-4%	-2%
COc1ccc(C(NC(=O)c2cccnc2)c2cc(Cl)c3cccnc3c2O)cc1OC (stereo not given)	?	1%	?	-3.8%	16µM*	7.1µM*	3%	2.2µM*
COc1cccc2c1nc(C)c1cc(C)oc12	12%	3%	-7%	-12%	-4%	-3%	-30%	-8%
CCC1=NN2C(=N)/C(=C\c3ccc(OCCOc4ccc(NC(C)=O)cc4)cc3)C(=O)N=C2S1	-22%	/	1%	/	-11%[46.1 µM]	-1%[46.1 µM]	8%	2%
CCN(C(=O)COC(=O)c1cc(-c2ccc(C)o2)nc2ccccc12)C1CCS(=O)(=O)C1 (stereo not given)	16%	/	/	/	?	-15%[46.1 µM]	8%	-1%
O=C(O)c1ccccc1C(=O)N1CCN(c2ccccc2)CC1	0%	-1%	3%	-2.5%	0%	?	-7%	17%

Screening data as filed in PubChem BioAssay.
